ugtP null kill: growth inhibition of ugtP-null S. aureus, primary screen, RN4220 ugtP deletion, OD600; AID 1259309, 2017; growth inhibition, % (concentration not given with the values); 0.54% of 330,000 active; 16 h; some inactives read as strong as hits;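 active means z-score under -3 and OD600 up to 0.15 on both plates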;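 further: plate controls were untreated wells for no effect and antibiotic for full effect; wells of about 80 µL received 100 nL stock; the first replicate is given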
RN4220 kill: growth inhibition of S. aureus RN4220, primary screen, OD600; 16 h; inhibition, % (no concentration beside the values); 0.33% of 330,000 active; AID 1259311, 2017;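 active means z-score of -3 or lower and OD600 up to 0.18 on both plates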;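 further: plate controls were untreated cells for no effect and reference antibiotic for full effect; stock transfer was 100 nL into about 80 µL; one replicate is shown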
Mtb hypoxia rep: PubChem AID 1159583; M. tuberculosis hypoxia-regulated fluorescent reporter, fluorescence; fluorescence inhibition, % (test concentration not listed); 0.1% of 300,000 active;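 active means 35 to 45% if threefold the growth effect, above 45% if 1.5-fold the growth effect; inactive means the rest, general growth blockers included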;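 further: wells of about 50 µL received 100 nL stock; 0% = vehicle wells and 100% = reference inhibitor wells; whole bacteria with a GFP reporter of the hypoxia response; strong numbers were not always called active; many hits fall short of the cut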
Autofluor counter: compound fluorescence in toxin protease inhibitor counterscreen; compound autofluorescence counterscreen, microsphere flow cytometry; active compounds read high; fluorescence intensity (concentration not given with the values); 3.1% of 360,000 active;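 active means at least 3 SD above the mean of all compounds, about 16000 in these data; inconclusive means too few beads counted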;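 further: 100 nL of 1 mM stock went into each well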
PrP UTR inh: inhibition of PrP 5' UTR reporter expression; cell-based PrP 5' UTR mRNA reporter, plate reader; AID 488862, 2010; 0.35% of 340,000 active; inhibition, % (test concentration not listed);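 active means every replicate at 50% or more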;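 further: 0 = median of the neutral control wells; tested in H4 reporter cells; numbers are from one replicate; inactives centre near -14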
BJeLR viability: MLPCN primary cell-based screen for lethality selective to Ras in HRASV12 cells; BJeLR (HRASV12) viability, CellTiter-Glo ATP luminescence, 48 h; reference of the scale not given here; inhibition, % (no concentration beside the values); 0.17% of 300,000 active;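 active means replicate mean above 50%; inconclusive means above 50% but judged a plate artefact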;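 further: 50 nL library stock added to about 25 µL; numbers are from one replicate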
Mtb hypoxia rep growth: further read-out of Mtb hypoxia rep, marked with its call; growth inhibition, %; measured here: M. tuberculosis growth (absorbance);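 0% = vehicle and 100% = reference antibiotic; read after six days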
An asterisk follows results filed as active; ? = inconclusive; . = not tested or not shown.

SMILES	ugtP null kill	RN4220 kill	Mtb hypoxia rep	Mtb hypoxia rep growth	Autofluor counter	PrP UTR inh	BJeLR viability
O=c1c2ccccc2nc(COc2ccccc2)n1N=Cc1cc([N+](=O)[O-])ccc1O	0	58	-1	-4	.	.	.
O=C(NC(=S)Nc1ccc(CN2CCOCC2)cc1)c1ccco1	9	3.6	11	13	3159	-35	-8
Nc1nc(SCC(=O)N2CCCC2)[nH]c(=O)c1NC(=O)c1ccco1	-5	-8.0	3	11	5987	15	4
CC1(C)NC(=O)N(CC(O)CN(c2cccc([N+](=O)[O-])c2)S(=O)(=O)c2ccccc2)C1=O (stereo not given)	-2	0.4	13	8	2963	-29	-9
CC(C(=O)N1CCc2ccccc21)n1cccc1 (stereo not given)	3	2.8	17	11	3623	-18	-7
Cc1sc(NC(=O)CN2CCOCC2)c(C#N)c1C	9	1.5	6	-1	.	.	-7
CC(C)C(=O)Nc1c(O)c2ccccc2[nH]c1=O	-4	3.5	-2	14	4415	-3	4
Cc1ccc(S(=O)(=O)N(C)CC(=O)Nc2cccc3c2CCCC3)cc1	-8	-11	0	7	2847	-25	-3
CCN1CCN(C2=NC(=O)/C(=C/c3ccc(C)o3)S2)CC1	-12	3.4	1	-1	10508	-40	-6
COCCCNC(=O)C1CC(=O)N(CCc2ccc(F)cc2)C1 (stereo not given)	12	0.9	4	6	3488	-23	-5
O=C(Cn1nc(-c2ccc(Cl)cc2)ccc1=O)N1CCN(c2ccccc2)CC1	-9	-4.8	8	6	6386	4	2
C/C(=N\NC(=O)c1ccccc1)C1C2C=CC(C2)C1(C)C (stereo not given)	.	.	.	.	5568	-15	-1
CC(=O)N(C)N(C)c1cc(C)nc(N)n1	-1	-1.0	18	15	3953	-40	-7
CCN(CC)C(=O)c1ccc2c3c(cccc13)C(=O)N(CCc1ccc(OC)c(OC)c1)C2=O	1	7.5	4	3	2321	-10	13
COc1ccc(N2CCN(C(=O)c3cc(C4CC4)nn3-c3ccccc3)CC2)cc1	39	-0.5	5	3	7704	-23	.
CSc1ccc(C2NC(=O)c3c(sc4c3CCN(C)C4)N2)cc1 (stereo not given)	9	-9.2	7	7	3847	-3	-22
Cc1ccc(C)c(NC(=O)CN(C)C(=O)c2cccc(Oc3ccccc3)c2)c1	0	0.6	3	9	3358	-12	.
COc1ccc(S(=O)(=O)N(C)CC2Oc3ccc(NS(=O)(=O)c4ccc(F)cc4)cc3C(=O)N(C(C)CO)CC2C)cc1 (stereo not given)	3	6.4	5	-2	.	.	.
COc1ccc(-c2noc(N3CCC(C(=O)Nc4cc(OC)c(OC)c(OC)c4)CC3)n2)cc1	-6	-2.1	-4	11	5933	-5	3
CNCCCOc1ccc(C)cc1Br	-6	1.4	6	1	20475*	-17	-12
COc1ccc(CC(=O)NNC(=O)c2cc(C)oc2C)cc1OC	-1	1.3	8	-1	4816	-26	2
Cc1cc(NC(=O)C(C)SCC(=O)Nc2cc(C(F)(F)F)ccc2N2CCCCC2)no1 (stereo not given)	-17	8.4	2	4	5876	-45	6
Cc1cccc(CS(=O)(=O)Cc2ccc(C(=O)NC3CCCCC3)o2)c1	13	3.7	4	-11	4306	1	5
CS(=O)(=O)c1ccc(Cl)c(NC(=O)CSc2n[nH]c(-c3cccs3)n2)c1	1	1.8	5	5	7891	-10	.
Cc1cc(=O)[nH]c(SCCOc2ccc3c(c2)CCC3)n1	-3	10	2	5	9691	-3	-1
CCCOc1ccccc1OCC(=O)Nc1cc(Cl)ccc1-n1cncn1	-2	4.8	-4	-5	4058	-1	-7
COc1cccc(OC)c1/C=C/C(=O)NC1CCCCC1	1	-2.1	6	14	4271	-11	-5
COc1ccc(C(CC(=O)N2CCOCC2)c2c(O)cc(OC)cc2OC)cc1 (stereo not given)	-12	-4.5	-4	1	3968	-8	2
Cn1nc(C(F)(F)F)c2cc(C(=O)O)sc21	-4	2.7	2	6	4521	-3	1
CSc1nc(S(=O)(=O)c2ccccc2)c(Cl)s1	-3	2.2	8	4	2484	-4	5
CCOC(=O)C1=C(N)Oc2ccc3ccccc3c2C1c1cccc(O)c1 (stereo not given)	81	60	10	8	3832	-2	6
COC(=O)C1=C(c2ccccc2)C[C@@H]2CC[C@H]1N2C(=O)NCc1ccccc1	.	.	.	.	4120	-9	-4
COc1ccc(Nc2nc(N)nc(CSc3nc(C)cc(C)n3)n2)cc1	3	13	-2	17	3311	-9	.
CCOC(=O)C(C)n1cnc2c(nnn2Cc2ccc(C)cc2)c1=O (stereo not given)	-6	-0.5	-8	3	20875*	-15	-5
O=S(=O)(NCC(c1ccco1)N1CCCCC1)c1cccc(C(F)(F)F)c1 (stereo not given)	3	4.3	12	3	.	-7	.
O=C(CCC(=O)Nc1ccccc1)NNC(=O)c1ccccc1Cl	4	3.7	13	11	4272	-35	7
COCCOC(=O)c1c(C)nc(SCC(=O)Nc2ccc(C)cc2)c(C#N)c1-c1ccco1	3	4.8	.	.	3685	-2	2
Cc1onc(-c2ccccc2Cl)c1C(=O)NCc1nc(-c2ccc(C(F)(F)F)cc2)no1	6	0.0	5	-3	4293	-27	4
CCOc1cc(Br)ccc1S(=O)(=O)NCc1ccccc1	-10	11	-6	2	10857	.	-13
COc1cccc(C=c2sc3nc(-c4cccs4)nn3c2=O)c1OC	2	0.4	3	2	.	.	.
CCOc1ccc(-n2c(C)nc3cc(C(=O)NCc4ccc5c(c4)OCO5)ccc32)cc1	78	-17	19	-2	2052	-25	8
Cc1ccc(NC(=O)C2CCN(S(=O)(=O)c3ccc(Cl)c(C(F)(F)F)c3)CC2)nc1	-1	-0.1	0	5	5829	-12	10
CCc1nc(NCc2ccccc2)c(C#N)c2c1CCCC2	23	-6.9	6	4	2826	-22	4
O=C(NCCN1CCN(c2ccccc2)CC1)Nc1ccccc1Br	13	1.5	-8	-4	3663	-17	-6
CCNc1cc(N2CCN(C)CC2)ccc1[N+](=O)[O-]	8	7.4	18	1	4115	-17	-32
COc1ccc(CNC(=O)CC23CC4CC(CC(C4)C2)C3)cc1OC	2	-1.4	16	-5	3964	-25	9
CCOC(=O)Cn1nc(C)n(-c2ccc(Cl)cc2)c1=O	-1	1.1	-3	-5	4144	-3	5
COc1c(OC(C)=O)c(=O)n2c3ccccc3c3ccnc1c32	6	-1.3	.	.	5092	-3	4
CCOC(=O)N1CCN(C(=O)c2cn(C)c3ccc(S(=O)(=O)N(C)C4CCCCC4)cc3c2=O)CC1	3	1.3	4	5	6130	-14	-2
Cc1cccc2c1CC(C)(C)N/C2=C\C(N)=O	4	2.4	1	3	2389	4	-4
Cc1ccc(-c2ncccc2OC(=O)C23CC4CC(CC(C4)C2)C3)cc1	20	12	-4	-4	6409	-37	8
Cc1ccc(-n2c(=O)c(C#N)cc3c(=O)n4ccccc4nc32)cc1C	-10	2.1	-2	-4	24210*	-30	-4
O=C(O)c1ccc(NS(=O)(=O)c2cc(Cl)ccc2Cl)cc1	.	.	.	.	2210	-2	-3
COCCNC(=O)C(NC(=O)C1CCCCC1)C(C)C (stereo not given)	9	3.9	14	4	.	2	7
Cc1ccc(NC(=O)COC(=O)CNC(=O)c2ccc3ccccc3c2)c([N+](=O)[O-])c1	.	.	.	.	2237	-13	3
Clc1cc(Cl)cc(C2=NCCC(c3ccccc3)O2)c1 (stereo not given)	15	6.6	4	-5	.	.	-6
CC(=O)c1cccc(Oc2cc(NN3CCCCC3)c([N+](=O)[O-])cc2[N+](=O)[O-])c1	-10	1.7	-1	0	4072	-23	6
CSc1ccccc1NC(=O)CN(C)C(=O)c1ccc2c(c1)OCCO2	.	.	.	.	4065	1	-5
Cc1nn(C)c(C)c1S(=O)(=O)NC1CCCC1	7	5.2	.	.	3549	-10	-11
Cc1cc(N2C(=O)CCC2=O)ccc1NC(=O)c1cccs1	4	-0.4	.	.	3841	-8	5

(listing goes on)
SMILES	ugtP null kill	RN4220 kill	Mtb hypoxia rep	Mtb hypoxia rep growth	Autofluor counter	PrP UTR inh	BJeLR viability
CC(=O)Nc1nnc(SCC(=O)c2ccc(F)cc2)s1	-1	4.8	5	13	3491	-34	0
CCCn1nnc(NC(=O)C(C)Oc2ccc(Cl)cc2Cl)n1 (stereo not given)	-8	3.3	11	22	3856	-11	-2
COc1cc(C(=S)N2CCOCC2)ccc1OS(=O)(=O)c1ccccc1[N+](=O)[O-]	0	11	2	6	2530	-54	-6
O=C(OCC(=O)N1CCCc2ccccc21)c1cc(S(=O)(=O)N2CCOCC2)ccc1F	3	4.8	7	7	6105	-11	4
CCOc1ccc(C(C)=O)cc1COC(=O)c1cccnc1SC	2	8.2	8	5	2703	-22	-11
C=CCn1c(SCC(=O)c2cc(C)n(C)c2C)nnc1-c1ccncc1	5	-7.3	1	1	3288	-19	5
Cc1sc2ncn(CC(=O)OCC(=O)NC(C)(C)C)c(=O)c2c1C	10	4.0	.	.	3548	-8	3
CN(C)c1nc(NN)nc(Nc2ccc(F)cc2)n1	-6	8.9	10	4	3643	-13	-14
Cc1ccc(N2C(=O)c3ccccc3C2C(=O)c2ccc(C)c(C)c2O)cc1 (stereo not given)	73	65	10	5	3412	-10	-6
CCOc1ccc(Cc2nnc(SCC(=O)Nc3ccc(OC)cc3)n(N)c2=O)cc1	2	-1.8	-12	7	?	-19	10
O=C(Nc1cccc([N+](=O)[O-])c1)C1CCN(C(=O)Cc2ccccc2)CC1	-3	-3.2	2	0	5065	-23	0
CC(C)n1cc(-c2nc(C(=O)NN)cs2)c(=O)n(Cc2ccccc2)c1=O	5	3.0	-5	-9	5691	-21	0
COc1ccc(CC(=O)NNC(=O)CCC(=O)Nc2cc(C)ccc2C)cc1	0	1.5	7	-1	4875	-13	0
CN(C(=O)COc1ccc([N+](=O)[O-])cc1)C1CCS(=O)(=O)C1 (stereo not given)	.	.	.	.	4760	-17	-6
CCCSc1nc(N2CCOCC2)c2c(c1C#N)CC(C)(C)SC2	12	-3.5	.	.	4855	0	2
CCC(CC)N1CCN(S(=O)(=O)c2ccc(OC)cc2)CC1	1	2.0	8	2	2945	4	-6
CCn1cc(C(=O)NCc2ccc(C)cc2)c(=O)c2cc(S(=O)(=O)N(C)C)ccc21	-1	1.3	-5	-3	3630	-20	-9
C/C(CC(=O)Nc1ccc(Cl)c(C(F)(F)F)c1)=N\NC(N)=S	.	.	.	.	4325	-25	2
COCCOC(=O)C1=C(N)OC(C)=C(C(=O)OC)C12C(=O)Nc1ccccc12 (stereo not given)	0	3.6	6	8	12971	-6	-6
COc1ccccc1CNC(=O)N1CCN(S(=O)(=O)c2ccc(Cl)cc2)CC1	8	-0.8	6	5	3842	-32	-5
COc1cc(C=NNc2nc(C)cc(=O)[nH]2)ccc1O	2	1.2	0	6	.	.	.
COc1ccc(-c2cc3nc(C)c(CCC(=O)NCc4ccc(F)cc4)c(C)n3n2)c(OC)c1	0	3.1	-6	8	2607	-16	-2
COc1ccc(-c2sc3cc4c(cc3c2C#Cc2cncn2C)OCO4)cc1	6	0.3	-1	-8	4159	-10	.
CCOC(=O)COc1ccc(Br)cc1/C=C\c1[nH]c(=O)[nH]c(=O)c1[N+](=O)[O-]	4	13	10	13	2400	-4	2
CCOc1ccc(C(=O)COc2ccc(NC(C)=O)cc2)cc1	5	2.5	9	10	3073	-22	-6

From PubChem BioAssay

Compounds were not picked by outcome. Share with any hit: about 4.1%.
